Mtb hypoxia inh – PubChem AID 1159583; M. tuberculosis hypoxia-regulated fluorescent reporter, fluorescence; fluorescence inhibition, % (test concentration not listed); actives 0.1% (n = 300,000);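 active = 35 to 45% if threefold the growth effect, above 45% if 1.5-fold the growth effect; inactive = the rest, general growth blockers included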;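 also: wells of about 50 µL received 100 nL stock; 0% = vehicle wells and 100% = reference inhibitor wells; whole bacteria with a GFP reporter of the hypoxia response; strong numbers were not always called active; many hits fall short of the cut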
Sa RN4220 lethal – growth inhibition of S. aureus RN4220, primary screen, OD600; 16 h; inhibition, % (concentration not given with the values); actives 0.33% (n = 330,000); AID 1259311, 2017;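 active = z-score of -3 or lower and OD600 up to 0.18 on both plates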;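 also: plate controls were untreated cells for no effect and reference antibiotic for full effect; stock transfer was 100 nL into about 80 µL; one replicate is shown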
ugtP null kill – growth inhibition of ugtP-null S. aureus, primary screen, RN4220 ugtP deletion, OD600. 16 h; some inactives read as strong as hits. actives 0.54% (n = 330,000). AID 1259309, 2017. growth inhibition, % (test concentration not listed);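 active = z-score under -3 and OD600 up to 0.15 on both plates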;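 also: plate controls were untreated wells for no effect and antibiotic for full effect; wells of about 80 µL received 100 nL stock; the first replicate is given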
PrP 5UTR inh – inhibition of PrP 5' UTR reporter expression; cell-based PrP 5' UTR mRNA reporter, plate reader; inhibition, % (test concentration not listed); actives 0.35% (n = 340,000); AID 488862, 2010;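 active = every replicate at 50% or more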;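 also: 0 = median of the neutral control wells; tested in H4 reporter cells; numbers are from one replicate; inactives centre near -14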
BJeLR viability – MLPCN primary cell-based screen for lethality selective to Ras in HRASV12 cells | BJeLR (HRASV12) viability, CellTiter-Glo ATP luminescence, 48 h; reference of the scale not given here | inhibition, % (concentration not given with the values) | actives 0.17% (n = 300,000) | AID 1554, 2009;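 active = replicate mean above 50%; inconclusive = above 50% but judged a plate artefact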;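 also: 50 nL library stock added to about 25 µL; numbers are from one replicate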
Bead autofluor – counter-screen for toxin protease inhibitors: compound fluorescence; actives 3.1% (n = 360,000); compound autofluorescence counterscreen, microsphere flow cytometry; stronger effect = higher value; AID 624483; fluorescence intensity (test concentration not listed);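 active = at least 3 SD above the mean of all compounds, about 16000 in these data; inconclusive = too few beads counted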;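 also: 100 nL of 1 mM stock went into each well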
Mtb hypoxia inh growth – also measured in Mtb hypoxia inh; calls as there; growth inhibition, %; measured here: M. tuberculosis growth (absorbance);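 0% = vehicle and 100% = reference antibiotic; read after six days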
* marks the source's active call; other numbers are inactive results.

Results for CSc1ccccc1NC(=O)Nc1cccc(Cl)c1 ?
Mtb hypoxia inh: 13; Sa RN4220 lethal: -9.6; ugtP null kill: -13; PrP 5UTR inh: -19; BJeLR viability: 1; Bead autofluor: 23180*; Mtb hypoxia inh growth: 1

What do the screens show for `O=C(NC(=S)Nc1cccc2ncccc12)c1ccccc1`?
Mtb hypoxia inh: -5; Sa RN4220 lethal: 44; ugtP null kill: 9; PrP 5UTR inh: -26; BJeLR viability: 15; Bead autofluor: 4307; Mtb hypoxia inh growth: 1

How did O=c1c(-c2ccccc2)c[nH]n1-c1cccc([N+](=O)[O-])c1 do in these assays?
Mtb hypoxia inh: -6; Sa RN4220 lethal: 39; ugtP null kill: 8; PrP 5UTR inh: -47; BJeLR viability: 2; Bead autofluor: 4146; Mtb hypoxia inh growth: 8

How did COc1cc(-c2ccccc2)[nH]c(=S)n1 do in these assays?
Mtb hypoxia inh: 11; Sa RN4220 lethal: -6.0; ugtP null kill: 24; PrP 5UTR inh: -17; Bead autofluor: 3694; Mtb hypoxia inh growth: 6

What do the screens show for `COc1ccc2sc(-c3ccccc3OC)c(C#CC(C)(C)O)c2c1`?
Mtb hypoxia inh: -2; Sa RN4220 lethal: -0.2; ugtP null kill: 7; PrP 5UTR inh: -11; Bead autofluor: 3816; Mtb hypoxia inh growth: 3

How did O=C(O)c1ccccc1C(=O)Nc1ccc(Oc2ccccc2)cc1 do in these assays?
Mtb hypoxia inh: 9; Sa RN4220 lethal: 3.0; ugtP null kill: 7; BJeLR viability: -1; Bead autofluor: 5944; Mtb hypoxia inh growth: 1

What do the screens show for `CCS(=O)(=O)c1ccc2oc(SCC(=O)NC3CCCC(C)C3C)nc2c1` (stereo unspecified)?
Mtb hypoxia inh: 1; Sa RN4220 lethal: -8.3; ugtP null kill: 8; PrP 5UTR inh: -30; BJeLR viability: -3; Bead autofluor: 2827; Mtb hypoxia inh growth: 1

What do the screens show for `CCCN1C(=O)SC(CC(=O)Nc2ccc(Br)cc2)C1=O` (stereo unspecified)?
Sa RN4220 lethal: -0.1; ugtP null kill: 0; PrP 5UTR inh: -12; BJeLR viability: 17; Bead autofluor: 4876

Results for CN1CCN(c2ccc(CNS(=O)(=O)c3ccc(Cl)cc3)cc2)CC1 ?
Mtb hypoxia inh: 1; Sa RN4220 lethal: 2.9; ugtP null kill: 4; PrP 5UTR inh: -30; BJeLR viability: -2; Bead autofluor: 5001; Mtb hypoxia inh growth: 5

Results for COc1ccc(S(=O)(=O)N2CCOC23CCN(S(=O)(=O)c2cc(C)ccc2C)CC3)cc1 ?
Mtb hypoxia inh: 1; Sa RN4220 lethal: 4.4; ugtP null kill: 4; PrP 5UTR inh: -1; BJeLR viability: 8; Bead autofluor: 5601; Mtb hypoxia inh growth: 10

How did CC(C)C(NC(=O)CN(c1cccc(F)c1)S(C)(=O)=O)C(C)C do in these assays?
Mtb hypoxia inh: 14; Sa RN4220 lethal: -4.9; ugtP null kill: 0; PrP 5UTR inh: -7; BJeLR viability: 0; Bead autofluor: 4399; Mtb hypoxia inh growth: 7

Results for O=C(C1CCC(=O)N1Cc1cccs1)N1CCOCC1 (stereo unspecified) ?
Mtb hypoxia inh: -9; Sa RN4220 lethal: 6.9; ugtP null kill: 8; PrP 5UTR inh: -8; BJeLR viability: -7; Bead autofluor: 4121; Mtb hypoxia inh growth: -4

How did CC1CCCCC1n1c(=S)[nH]c2ccccc2c1=O (stereo unspecified) do in these assays?
Mtb hypoxia inh: -1; Sa RN4220 lethal: 3.1; ugtP null kill: -36; PrP 5UTR inh: -134; BJeLR viability: -12; Bead autofluor: 23138*; Mtb hypoxia inh growth: -1

What do the screens show for `COc1ccc(/C=C/C(=O)Nc2ccc(NC(C)=O)cc2)cc1S(=O)(=O)N1CCOCC1`?
Mtb hypoxia inh: -2; Sa RN4220 lethal: 0.5; ugtP null kill: -9; PrP 5UTR inh: -6; BJeLR viability: -18; Bead autofluor: 3868; Mtb hypoxia inh growth: 7

How did Cc1ccccc1[C@@H]1C(C#N)=C(N)S[C@H]1C(=O)c1ccccc1 do in these assays?
Mtb hypoxia inh: -2; Sa RN4220 lethal: -1.9; ugtP null kill: -6; PrP 5UTR inh: 3; BJeLR viability: 7; Bead autofluor: 10080; Mtb hypoxia inh growth: 5

How did CN(c1ccccc1C(=O)NCc1ccccc1Cl)S(=O)(=O)c1ccccc1 do in these assays?
Mtb hypoxia inh: -5; Sa RN4220 lethal: 2.2; ugtP null kill: 3; PrP 5UTR inh: -41; BJeLR viability: 7; Bead autofluor: 3520; Mtb hypoxia inh growth: 1

Results for CC1CCCC(C)N1/N=C/c1cccc(Br)c1 (stereo unspecified) ?
PrP 5UTR inh: -3; BJeLR viability: -9; Bead autofluor: 3698

What do the screens show for `COc1ccccc1C(CCNCc1ccccc1)c1ccc(OC(C)C)cc1` (stereo unspecified)?
Mtb hypoxia inh: 4; Sa RN4220 lethal: -1.8; ugtP null kill: -4; PrP 5UTR inh: -31; BJeLR viability: 5; Bead autofluor: 3337; Mtb hypoxia inh growth: 14

How did NC(=S)N/N=C/c1cc([N+](=O)[O-])ccc1OCCOc1ccccc1 do in these assays?
PrP 5UTR inh: -8; BJeLR viability: -15; Bead autofluor: 2653

How did Cc1ccc(OCC(=O)NCCCNC(=O)c2ccccn2)cc1C do in these assays?
Mtb hypoxia inh: 12; Sa RN4220 lethal: 2.0; ugtP null kill: 2; PrP 5UTR inh: -9; BJeLR viability: 5; Bead autofluor: 3728; Mtb hypoxia inh growth: 8

Results for Clc1ccc(C2[C@H]3CN(CC4CCCCC4)[C@H](c4ccccc4)C34CC2(c2ccccc2)C4)cn1 (stereo partly specified) ?
PrP 5UTR inh: -4; BJeLR viability: -7; Bead autofluor: 3885

How did CCN(CC)CCNC(=O)/C(=C/c1cn(C)c2ccccc12)NC(=O)c1ccc(OC)c(OC)c1 do in these assays?
Mtb hypoxia inh: 8; Sa RN4220 lethal: 1.1; ugtP null kill: 4; PrP 5UTR inh: -22; BJeLR viability: -1; Bead autofluor: 4288; Mtb hypoxia inh growth: 0

Results for COc1ccc(-n2ncc3c(=O)n(CC(=O)N4CCCc5ccccc54)cnc32)cc1 ?
Mtb hypoxia inh: 11; Sa RN4220 lethal: 1.2; ugtP null kill: 5; PrP 5UTR inh: -14; Bead autofluor: 11486; Mtb hypoxia inh growth: 12

Results for Cc1sc(NC(=O)CSc2nnnn2C2CCCCC2)c(C#N)c1C ?
Mtb hypoxia inh: 6; Sa RN4220 lethal: 4.7; ugtP null kill: -3; PrP 5UTR inh: -21; BJeLR viability: -7; Bead autofluor: 4232; Mtb hypoxia inh growth: 10

How did Cc1nnc(SCC(=O)N(C(C)C)C(C)C)[nH]c1=O do in these assays?
Mtb hypoxia inh: -3; Sa RN4220 lethal: 0.6; ugtP null kill: 0; PrP 5UTR inh: -6; BJeLR viability: -3; Bead autofluor: 3361; Mtb hypoxia inh growth: -8

What do the screens show for `COc1nc(N)c(S(=O)(=O)c2ccc(C)cc2)cc1C#N`?
Mtb hypoxia inh: 8; Sa RN4220 lethal: 6.2; ugtP null kill: -4; PrP 5UTR inh: -8; BJeLR viability: -9; Bead autofluor: 19122*; Mtb hypoxia inh growth: 10

How did CCCS(=O)(=O)N1CCC(C(=O)NCc2cccnc2)CC1 do in these assays?
Mtb hypoxia inh: 9; Sa RN4220 lethal: -14; ugtP null kill: -3; PrP 5UTR inh: -12; BJeLR viability: -6; Bead autofluor: 2853; Mtb hypoxia inh growth: 3

What do the screens show for `CCN(CC(=O)Nc1ccc(NC(C)=O)cc1)C(=O)/C=C/c1c(C)nn(-c2ccc(F)cc2)c1C`?
Mtb hypoxia inh: 1; Sa RN4220 lethal: 3.4; ugtP null kill: 7; PrP 5UTR inh: -4; BJeLR viability: 6; Bead autofluor: 6674; Mtb hypoxia inh growth: 5

How did O=C(NCCC1=CCCCC1)c1cc2ccccc2oc1=O do in these assays?
Mtb hypoxia inh: 2; Sa RN4220 lethal: 4.7; ugtP null kill: -7; PrP 5UTR inh: 3; BJeLR viability: 1; Bead autofluor: 6196; Mtb hypoxia inh growth: -3

Results for O=C1CC2(CCN(C(=O)C3CC(=O)N(c4ccccc4)C3)CC2)Oc2ccccc21 (stereo unspecified) ?
Mtb hypoxia inh: 1; Sa RN4220 lethal: 3.0; ugtP null kill: 8; PrP 5UTR inh: -25; BJeLR viability: 5; Bead autofluor: inconclusive; Mtb hypoxia inh growth: -4

3 structures already listed, arranged by heavy-atom count, low to high.
How did CC(C)C(NC(=O)CN(c1cccc(F)c1)S(C)(=O)=O)C(C)C do in these assays?
Mtb hypoxia inh: 14; Sa RN4220 lethal: -4.9; ugtP null kill: 0; PrP 5UTR inh: -7; BJeLR viability: 0; Bead autofluor: 4399; Mtb hypoxia inh growth: 7

What do the screens show for `COc1ccc2sc(-c3ccccc3OC)c(C#CC(C)(C)O)c2c1`?
Mtb hypoxia inh: -2; Sa RN4220 lethal: -0.2; ugtP null kill: 7; PrP 5UTR inh: -11; Bead autofluor: 3816; Mtb hypoxia inh growth: 3

What do the screens show for `CCN(CC(=O)Nc1ccc(NC(C)=O)cc1)C(=O)/C=C/c1c(C)nn(-c2ccc(F)cc2)c1C`?
Mtb hypoxia inh: 1; Sa RN4220 lethal: 3.4; ugtP null kill: 7; PrP 5UTR inh: -4; BJeLR viability: 6; Bead autofluor: 6674; Mtb hypoxia inh growth: 5

The listing continues:
What do the screens show for `O=C(COC(=O)C1=COCCO1)NC1CCCCC1`?
Mtb hypoxia inh: 0; Sa RN4220 lethal: -0.6; ugtP null kill: -5; PrP 5UTR inh: -12; BJeLR viability: 9; Bead autofluor: 4225; Mtb hypoxia inh growth: 0

How did O=C(C1=CC(c2ccccc2)CC(OCc2ccc(CO)cc2)O1)N1CCN(Cc2ccccc2)CC1 (stereo unspecified) do in these assays?
Mtb hypoxia inh: 6; Sa RN4220 lethal: 6.7; ugtP null kill: -20; Mtb hypoxia inh growth: 2

Results for COC(=O)c1c(NC(=O)CCC(=O)O)sc2c1CCCCC2 ?
Mtb hypoxia inh: 3; Sa RN4220 lethal: 7.2; ugtP null kill: 10; PrP 5UTR inh: -13; BJeLR viability: 5; Bead autofluor: 2410; Mtb hypoxia inh growth: 4

How did CCc1nnc(NC(=O)CCN(c2cc(C)cc(C)c2)S(=O)(=O)c2ccc(Cl)cc2)s1 do in these assays?
Mtb hypoxia inh: 6; Sa RN4220 lethal: 1.7; ugtP null kill: -5; PrP 5UTR inh: 4; BJeLR viability: 1; Bead autofluor: 1989; Mtb hypoxia inh growth: -1

Results for O=C(CCl)N1CCN2C(=O)c3ccccc3C12c1ccc(Cl)cc1 (stereo unspecified) ?
Mtb hypoxia inh: 25; Sa RN4220 lethal: 21; ugtP null kill: 1; PrP 5UTR inh: -29; BJeLR viability: 18; Bead autofluor: 4319; Mtb hypoxia inh growth: 33

How did CCn1c(CNC(=O)c2ccccc2F)cc2ccccc21 do in these assays?
Mtb hypoxia inh: 12; Sa RN4220 lethal: 16; ugtP null kill: 8; PrP 5UTR inh: -18; BJeLR viability: 0; Bead autofluor: 4093; Mtb hypoxia inh growth: 5

Results for CCc1nn(CC(=O)Nc2cc(C)ccc2C)c(=N)s1 ?
Mtb hypoxia inh: 12; Sa RN4220 lethal: 7.1; ugtP null kill: 4; PrP 5UTR inh: -18; BJeLR viability: 3; Bead autofluor: 4209; Mtb hypoxia inh growth: 2

Results for CSc1ccc(CN2CCCN(C)CC2)cc1 ?
Mtb hypoxia inh: -5; Sa RN4220 lethal: -0.5; ugtP null kill: 4; PrP 5UTR inh: -7; BJeLR viability: 5; Bead autofluor: 3876; Mtb hypoxia inh growth: 3

What do the screens show for `COc1ccc(CCN2CC(C(=O)N3CCC(O)(c4ccccc4)CC3)CCC2=O)cc1` (stereo unspecified)?
Mtb hypoxia inh: 10; Sa RN4220 lethal: -6.2; ugtP null kill: 11; PrP 5UTR inh: -27; BJeLR viability: -5; Bead autofluor: 6016; Mtb hypoxia inh growth: -7

Results for COc1ccccc1N1CCN(C(=O)/C=C/c2cccc([N+](=O)[O-])c2)CC1 ?
Mtb hypoxia inh: 8; Sa RN4220 lethal: 6.1; ugtP null kill: 7; PrP 5UTR inh: -20; BJeLR viability: -15; Bead autofluor: 4441; Mtb hypoxia inh growth: -2

What do the screens show for `Cc1cc(C)n(-c2nnc(NC(C)(C)C)nn2)n1`?
Mtb hypoxia inh: 10; Sa RN4220 lethal: 5.4; ugtP null kill: 1; PrP 5UTR inh: -39; BJeLR viability: -3; Bead autofluor: 2650; Mtb hypoxia inh growth: 6

Bioassay records from PubChem.
